Source: PubChem (National Center for Advancing Translational Sciences (NCATS))
HSD17B inh: blocks hydroxysteroid 17-beta dehydrogenase activity. Q99714. recombinant HSD17B10, NADH fluorescence kinetic; many of its hits are not listed in these tables. Potency, µM (doses to about 57.1 µM), inactives show top-dose activity change, negative = inhibition, hits mostly inhibitors. actives 7.6% (n = 75,000); active means well fitted inhibition curve with a large enough effect; inconclusive means small, poorly fitted or top-dose-only effect; inactive means no such curve, though single readings can be large or run the other way;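 further: the protocol describes HADH2 (HSD17B10) and not the HSD17B4 of the title; nearly all actives have a fitted effect of over 70% in size; most hits overshoot -100% by far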
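Activity followed as NADH fluorescence increase (ex 360, em 450 nm) every 30 seconds for 4 min, using final 90 uM beta-hydroxybutyryl CoA and 1 mM NAD+. Recombinant His-tagged enzyme, 20 nM, pH 9.0 Tris buffer, 15 min compound preincubation.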
An asterisk follows results filed as active; ? = inconclusive; [ ] = dose if it differs, or a comment. On the % scale 0 is the no-effect control and ±100 the full control effect; potency means the concentration at half of the fitted maximal effect. Only part of the results is shown. The share of hits here may be higher or lower than overall.

smiles	HSD17B inh
Cn1c(=O)c2c(nc(NCc3ccccc3)n2CCCc2ccccc2)n(C)c1=O	10%
COc1ccc(CC(N)C(=O)NC2C(CO)OC(n3cnc4c(N(C)C)ncnc43)C2O)cc1 (stereo not drawn)	-1%
O=C(OCC1COc2ccccc2O1)c1c(F)cccc1F (stereo not drawn)	-2%
COc1cccc(NC(=O)NCc2cccn2C)c1	-2%
O=C1NCCN1CCNS(=O)(=O)c1ccc2ccccc2c1	6%
CCOc1ccccc1-n1nnnc1SCC(=O)Nc1cc2oc3ccccc3c2cc1OC	2%
CCCCN(C(=O)c1c(C)[nH]c(C(=O)OCC)c1C)c1ccccc1	-5%
COCCn1c(=O)cnc2cnc(Oc3ccc(OC)cc3)nc21	3%
CCN(CC)S(=O)(=O)c1ccc(-c2nnc3sc4cccc(C)c4n23)cc1	?
Cc1ccsc1C(C(=O)NC1CCCCC1)N(C(=O)c1csnn1)C1CC1 (stereo not drawn)	4%

Later entries.
smiles	HSD17B inh
CCOC(=O)C1CCCN(C(=O)C2CCN(S(=O)(=O)c3cccs3)CC2)C1 (stereo not drawn)	2%
Cc1cc(C(=O)Nc2ccc(S(=O)(=O)Nc3onc(C)c3C)cc2)cs1	6%
CCn1c(SCC(=O)NCc2cccs2)nnc1-c1ccco1	2%
O=C(CN(C(=O)CCC(=O)Nc1nccs1)c1ccc(F)cc1)NCc1ccco1	8%
COc1ccc2c(c1OC)C(=O)N(c1cccc(C(F)(F)F)c1)C2	-12%
COCCCN(C(C)=O)c1nc(-c2ccccc2)cs1	4%
Cc1ccccc1Cn1c(-c2cncs2)nc2ccccc21	-16%
CN1CCN(c2ccccc2NC(=O)c2ccc(Br)o2)CC1	?
Cc1cc(=O)oc2cc(OCC#N)ccc12	32µM*
Cc1ccc(OCCCCn2ccnc2)c(Cl)c1	-14%

Compounds above containing an aryl thioether with sulfur outside any ring:
smiles	HSD17B inh
CCOc1ccccc1-n1nnnc1SCC(=O)Nc1cc2oc3ccccc3c2cc1OC	2%
CCn1c(SCC(=O)NCc2cccs2)nnc1-c1ccco1	2%

Carrying on.
smiles	HSD17B inh
Cc1nc2ccccc2n1CCc1nc2c3ccccc3nc(SCC(=O)NCc3ccco3)n2n1	-24%
Cc1nc2cnc(OCc3ccccc3)nc2n(CCC#N)c1=O	3%
Cc1ccc(-n2c(SCC(=O)NCC3CCCO3)nc3c(c2=O)SCC3)cc1 (stereo not drawn)	-9%
Cc1cccc(-c2cc3nc4c(c(N5CCOCC5)n3n2)CCCC4)c1	?
C=CCOc1cccc(C2C(C(=O)c3ccco3)=C(O)C(=O)N2Cc2ccncc2)c1 (stereo not drawn)	-7%
COc1ccccc1-c1cc(C(=O)NCc2ccccc2)no1	25µM*
Cc1nn(-c2ccccc2)c(C)c1C(=O)OCC(=O)N1CC(=O)Nc2ccccc21	2%
CCOC(=O)CC(=O)CSCC(=O)Nc1ccc(C)cc1	?
O=C(Nc1cccc(F)c1)N1CC[C@@]2(CCCN(S(=O)(=O)c3ccccc3)C2)C1	2%
C=CCNC(=O)CC(C)C(CCCCC)C(=O)O (stereo not drawn)	1%

Next part:
smiles	HSD17B inh
O=C(CSc1nnc(-c2ccc(F)cc2)o1)Nc1ccc(S(=O)(=O)N2CCCC2)cc1	4%
COc1cc(OC)cc(-c2nnc(SCC(=O)N(Cc3ccccc3)C(C)(C)C)o2)c1	3%
NC(=O)c1ccsc1NC(=O)c1nc(-c2ccccc2)n(-c2ccccc2)n1	11%
O=C(CSc1nnc(CNC(=O)c2c(F)cccc2Cl)o1)c1ccccc1	4%
CCOC(=O)CSc1nc2ccccc2n1CC(=O)N1CCN(c2ccccc2)CC1	3%
O=C(NCCCN1CCOCC1)c1ccc(CS(=O)(=O)Cc2ccccc2Cl)o1	2%
O=C(CCn1c(=O)oc2ccccc21)NCCN1CCc2ccccc2C1	-3%
CC1=C(C(=O)OCCOc2ccccc2)C(c2ccc(C)o2)C2=C(CC(C)(C)CC2=O)N1 (stereo not drawn)	?
CCOC(=O)N1CCN(C(=O)CSc2nnc(-c3c[nH]c4ccccc34)n2CCOC)CC1	-5%
CC1CCCCC1NC(=O)c1ccc(N2CCCC2=O)cc1 (stereo not drawn)	7%

Quoted from the listing, six compounds:
smiles	HSD17B inh
Cc1nn(-c2ccccc2)c(C)c1C(=O)OCC(=O)N1CC(=O)Nc2ccccc21	2%
CCOC(=O)CC(=O)CSCC(=O)Nc1ccc(C)cc1	?
O=C(Nc1cccc(F)c1)N1CC[C@@]2(CCCN(S(=O)(=O)c3ccccc3)C2)C1	2%
C=CCNC(=O)CC(C)C(CCCCC)C(=O)O (stereo not drawn)	1%
O=C(CSc1nnc(-c2ccc(F)cc2)o1)Nc1ccc(S(=O)(=O)N2CCCC2)cc1	4%
COc1cc(OC)cc(-c2nnc(SCC(=O)N(Cc3ccccc3)C(C)(C)C)o2)c1	3%

Next part.
smiles	HSD17B inh
CN(C)S(=O)(=O)N1CCC(CCCC2CCN(S(=O)(=O)N(C)C)CC2)CC1	-2%
CCOC(=O)CSc1nc2ccccc2c(=O)n1CC	11%
O=C(NCCc1nc2ccccc2[nH]1)Nc1ccccc1	4%
Cn1c(SCC(=O)Nc2ccc3cn[nH]c3c2)nnc1-c1cnccn1	-21%
CC1CC(OC(=O)c2ccccc2O)CC(C)(C)C1 (stereo not drawn)	-12%
Cc1cccc(-c2noc(CCCC(=O)Nc3cccnc3)n2)c1	6%
C=C(C)CSC1=C(C#N)C(c2ccccc2)CC(=O)N1 (stereo not drawn)	0%
C/C(N)=C(/C#N)C(=O)CSc1ncnc2ccccc12	-23%
O=C(CSc1ccc2nnc(-c3cccs3)n2n1)N1CCOCC1	7%
Cc1ccc2nc(Nc3nc(=O)c4ccccc4n3C)nc(C)c2c1	-13%

Later entries
smiles	HSD17B inh
COC(=O)[C@@]1(Cc2ccc(F)cc2)[C@H]2c3cc(C(=O)N(C)C)n(CCc4ccccn4)c3C[C@H]2CN1C(=O)c1ccccc1	7%
O=C1CN(C(=O)COC(=O)C2=COCCO2)c2ccccc2N1	3%
COc1ccccc1N1CCN(C(=O)C2CCN(S(=O)(=O)N3CCOCC3)CC2)CC1	4%
CCOC(=O)c1sc2nc(N3CCOCC3)c3c(c2c1N)CCC3	13µM*
Cc1nc2c3ccccc3n(CC(=O)c3ccc(F)cc3)c(=O)n2n1	8%
O=C(O)C1OC(C(=O)O)C2C1C(F)(F)C2(F)F (stereo not drawn)	3%
CCOC(=O)c1ccc(NC(=O)Nc2ccn(C)n2)cc1	2%
CC#CCN(CC#CC)S(=O)(=O)c1ccc(S(=O)(=O)N2CCOCC2)cc1	-1%
CCCc1nnc(SCC(=O)O)n1/N=C/c1ccc2c(c1)OCO2	-10%
Cc1cc(SCC(=O)Nc2ccccc2)nc(C)n1	7%

(more compounds)
smiles	HSD17B inh
Cc1cccc(CCNC(=O)C2CCN(S(=O)(=O)c3c(C)nn(C)c3C)CC2)c1	15%
CCc1nnc(NC(=O)CSc2nnc(Cc3ccccc3)n2-c2ccccc2)s1	3%
CCOc1cc(C(=O)NCC(C)CN(C)C)cc(OCC)c1OCC (stereo not drawn)	5%
COC(=O)[C@@]1(Cc2ccccc2)[C@H]2c3cc(C(=O)N(C)C)n(Cc4ccsc4Br)c3C[C@H]2CN1C(=O)c1ccccc1	7%
Cn1cc(CNC(=O)C2CCCCC2)cn1	1%
CCOC(=O)CC1C(=O)NC2CCCCC2N1C(=O)Nc1ccc(Cl)cc1 (stereo not drawn)	-7%
C[C@@H](C(=O)O)/C(=C/c1ccc2c(c1)OCO2)C(=O)O	4%[11.4 µM]
O=C(c1cnccn1)N1CCC[C@@]2(CCN(Cc3cc(C(F)(F)F)cc(C(F)(F)F)c3)C2)C1	7%
CC1CCc2nn(CC(=O)NCCCN3CCOCC3)cc2C1 (stereo not drawn)	5%
Cc1nc2cnc(N3CCN(C)CC3)nc2n(C2CC2)c1=O	20µM*

(more compounds)
smiles	HSD17B inh
O=C1CC(Cc2ccccc2)C(=O)N1c1ccc(Cl)cn1 (stereo not drawn)	-14%
Cc1sc2ncnc(-n3cnc4ccccc43)c2c1C	32µM*
COc1ccccc1N1CCN(C(=O)C(C)N(c2ccc(C)c(C)c2)S(C)(=O)=O)CC1 (stereo not drawn)	-6%
CCOC(=O)c1ccc2[nH]c3c(c2c1)CN(C)CC3	25µM*
OCC#CCSc1nnc(-c2ccc(Br)cc2)o1	-1%
Cc1ccc(CNC(=O)CCNC(=O)Cn2ccc3ccccc3c2=O)o1	-17%
O=C(CSCc1ccccn1)Nc1ccccc1	4%
O=C(Nc1ccc2ccccc2c1)c1cccnc1	-2%
Cn1c(=O)c2c(SCc3ccccc3)nc(-c3ccco3)nc2n(C)c1=O	-6%
Cc1csc(NC(=O)CSc2nnc(C)s2)n1	-11%

(listing goes on)
smiles	HSD17B inh
O=C(NCc1cccs1)C1CCCN(S(=O)(=O)c2ccc3c(c2)OCO3)C1 (stereo not drawn)	0%
CS(=O)(=O)N1CCC2(CC1)CN(C(c1ccccc1)c1ccccc1)C2	7%
COC(=O)CSc1nnc(CNc2ccc(F)cc2)o1	1%
Cc1cccc(N(C(=O)CCC(=O)Nc2cc(C)on2)C(C(=O)NC2CCCC2)c2ccncc2)c1 (stereo not drawn)	11%
COc1ccc(-n2c(SCc3nnc(-c4ccccc4)o3)nnc2-c2ccccc2)cc1	-8%
c1csc(-c2csc3ncnc(NCCCN4CCOCC4)c23)c1	-3%
OCCN(Cc1ccccc1)Cc1ccc(F)c(F)c1	6%
COc1ccc(N2CCN(CCNC(=O)c3c(C)cc(=O)oc3C)CC2)cc1	-3%
Cc1cc(C)c2c(=O)[nH]n(C3CC(C)N(C)CC3C)c2n1 (stereo not drawn)	6%
CCN(CC)C(=O)CSc1nnc([C@@H](NC(=O)OC(C)(C)C)C(C)C)o1	2%

More structures:
smiles	HSD17B inh
Cn1cnnc1SCC(=O)Nc1ccccc1	7%
CC(=O)Nc1c(C(=O)N2CCOCC2)sc2nc3c(cc12)COC(C)(C)C3	0%
CCOC(=O)CCN1C(=O)[C@H]2[C@@H]3[C@H](O)C=CC(=O)[C@H]3CC[C@H]2C1=O	-2%[11.4 µM]
COc1ccc(OC)c(NC(=O)C2C3CC4OC(=O)C2C4C3)c1 (stereo not drawn)	-8%
NC(=O)C1CCCN(C(=O)c2ccc(Cl)cc2)C1 (stereo not drawn)	6%
CN1C(=O)CC(c2ccco2)Sc2ccccc21 (stereo not drawn)	4%
Cc1cc(NC(=O)COC(=O)C(Cc2ccccc2)NC(=O)c2ccco2)no1 (stereo not drawn)	4%
COc1ccc2c(c1)c1c3n2CCN(C)C3=NCC1	?
Cc1nn(C)c(C)c1NS(=O)(=O)c1ccccc1	6%
CC(C)NC(=O)C1CCCN(c2nnc(-n3cccc3)s2)C1 (stereo not drawn)	4%

The last 3 records of the section before open the next one:
smiles	HSD17B inh
COc1ccc2c(c1)c1c3n2CCN(C)C3=NCC1	?
Cc1nn(C)c(C)c1NS(=O)(=O)c1ccccc1	6%
CC(C)NC(=O)C1CCCN(c2nnc(-n3cccc3)s2)C1 (stereo not drawn)	4%
O=C(NCCN1CCN(C(=O)Nc2ccccc2)CC1)Nc1ccccc1	4%
O=C(c1ccco1)N1CCN(S(=O)(=O)c2ccc(Oc3ccccc3)cc2)CC1	-4%
C[C@@H]1C=CCC(=O)OC[C@H](C)C(=O)OC[C@H]2O[C@H]1C=C[C@H]2O	7%[11.4 µM]
Nc1ccccc1NC(=O)c1ccccc1	-6%
CCOC(=O)Cc1nnc2c(Nc3ccc(Cl)cc3)nc3nonc3n12	14%
O=C(NCc1ccncc1)c1c(F)c(F)c(F)c(F)c1F	?
Cc1cc(CC(=O)O)n(C)c1C(=O)c1ccc(Cl)cc1	2%
O=C(NCc1ccco1)C1CCN(S(=O)(=O)c2ccc(-n3cnnn3)cc2)CC1	1%
O=C(NCC(c1cccnc1)N1CCOCC1)c1cccc(Cl)c1 (stereo not drawn)	9%
O=C(O)[C@@H]1CCN(Cc2oc(CO)cc(=O)c2O)C1	7%[11.4 µM]

(further entries)
smiles	HSD17B inh
Cc1ccc(C(=O)CSc2n[nH]c(C)n2)cc1	0%
C[C@@H](c1ccccc1)N1C(=O)[C@H]2[C@H]3[C@H](O)[C@H](O)C/C(=N/NC(=O)OCc4ccccc4)[C@@H]3CC[C@@H]2C1=O	4%[11.4 µM]
CN(C)CCNC(=O)c1cc2c(=O)n(C)c3ccccc3c2n1C	?
O=C(Cn1cnc2c(nnn2Cc2ccccc2)c1=O)c1ccccc1	-2%
COC(=O)C(C)NC(=O)C1CCCN1S(=O)(=O)c1cc(C)c(Cl)cc1C (stereo not drawn)	1%
C=CC[C@@H]1C=C[C@@H](O/N=C\[C@@H](NS(=O)(=O)c2ccc(C)cc2)[C@H](C)/C=C\CC(=O)OC)[C@@H](CO)O1	?
CCOC(=O)c1cc(C#N)c(SCc2ccc(C#N)cc2)nc1C	-1%
